rRNA inh HTS: inhibitors of bacterial rRNA selective over humanized ribosomes | E. coli WT GFP vs humanized-ribosome RFP mutants, fluorescence, 24 h; stronger effect = lower value; DMSO median 0, no signal -100 | GFP signal change (wild-type ribosome), % (no concentration beside the values) | hit rate 1.6% among 350,000 | AID 720706;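 active = significant combined selectivity score with lowered wild-type GFP, culture density cut under 30%, mutant RFP and density less affected; inactive = any of these conditions unmet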; note: one replicate is shown; some compounds called inactive have numbers as strong as hits
E coli growth: E. coli growth inhibition; Escherichia coli growth, OD600, 23 h; stronger effect = lower value; OD600 absorbance (concentration not given with the values); hit rate 0.21% among 330,000;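 active = OD600 absorbance below the run mean of sample wells minus 3.6 SD, in any replicate, cut at about 0.56 in these data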;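 note: stock transfer was 300 nL into about 60 µL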
MLL AF4-AF9 inh: MLL-AF4/AF9 protein interaction inhibition; AlphaScreen, biotin-AF4 peptide binding to FLAG-AF9; P42568; inhibition, % at 10 µM; AID 651704; hit rate 0.47% among 350,000;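 active = every replicate reaching a set inhibition limit, whatever the replicate mean, cut at about 25% in these data; inconclusive = mean inhibition reaches that limit but some replicates miss it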;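 note: 0% = plate neutral control median and 100% = total signal loss; the record names both 10 and 1 µM as test concentration; the first replicate is given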
Target sequence (P42568 whole entry, looked up): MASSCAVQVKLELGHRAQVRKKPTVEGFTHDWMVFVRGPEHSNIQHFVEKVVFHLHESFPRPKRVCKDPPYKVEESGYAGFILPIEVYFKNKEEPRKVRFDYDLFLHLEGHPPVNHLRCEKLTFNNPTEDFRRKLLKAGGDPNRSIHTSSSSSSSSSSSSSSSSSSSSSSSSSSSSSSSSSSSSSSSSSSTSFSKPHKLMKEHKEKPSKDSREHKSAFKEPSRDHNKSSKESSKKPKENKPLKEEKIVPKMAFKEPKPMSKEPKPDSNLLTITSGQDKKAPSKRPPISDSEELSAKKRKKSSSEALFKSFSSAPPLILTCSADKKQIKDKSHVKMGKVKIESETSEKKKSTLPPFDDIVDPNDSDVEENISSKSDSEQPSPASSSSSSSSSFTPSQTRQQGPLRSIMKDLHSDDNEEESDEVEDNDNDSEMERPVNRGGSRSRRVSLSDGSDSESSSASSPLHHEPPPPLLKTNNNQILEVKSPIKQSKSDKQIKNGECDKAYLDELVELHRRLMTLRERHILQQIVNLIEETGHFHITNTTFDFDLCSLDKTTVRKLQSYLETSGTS
FGF22 binding: shifts melting point of recombinant human FGF22. Q9HCT0. recombinant FGF22 thermal shift, SYPRO orange fluorescence; percent of sucrose octasulfate shift, DMSO zero. calls only at 9.99 µM. hit rate 1.5% among 340,000;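 active = melting point raised past a set limit in the mean and every replicate; inconclusive = no clear call; three in four hits are not shown here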
Vif A3G: inhibitors of Vif binding to APOBEC3G peptide, primary screen, biochemical, TR-FRET, GST-Vif 1-94, biotin-A3G peptide, dose response retest (AID 1117319); one-dose inhibition, %; IC50 in µM for titrated hits; TR-FRET GST-Vif / biotin-A3G peptide binding; higher % means a stronger effect; test concentration not given here; strong numbers were not always called active; hit rate 0.57% among 260,000;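 active = above the screen mean plus three standard deviations and confirmed in dose response; inconclusive = results disagree or hit not tested in dose response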;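 note: Vif residues 1-94 fused to GST binding biotinylated APOBEC3G peptide 110-148; 0% = full assay without inhibitor and 100% = GST in place of GST-Vif; retest series ran down from 100 µM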
HNF4A DNA FP: change in binding of human HNF4 alpha to DNA | HNF4a-FITC DNA binding, fluorescence polarization, 1 h | activity change, % at 10 µM | hit rate 0.3% among 360,000 | AID 1224865; in the data active = activity change above about 30%, passing the limit was not always enough;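 note: controls were the assay level and a saturating level of protein; the project sought stronger binding though the title names inhibitors; some compounds called inactive have numbers as strong as hits; positive values seem to mean higher polarization but the record does not say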
Target sequence (P41235 whole entry, looked up): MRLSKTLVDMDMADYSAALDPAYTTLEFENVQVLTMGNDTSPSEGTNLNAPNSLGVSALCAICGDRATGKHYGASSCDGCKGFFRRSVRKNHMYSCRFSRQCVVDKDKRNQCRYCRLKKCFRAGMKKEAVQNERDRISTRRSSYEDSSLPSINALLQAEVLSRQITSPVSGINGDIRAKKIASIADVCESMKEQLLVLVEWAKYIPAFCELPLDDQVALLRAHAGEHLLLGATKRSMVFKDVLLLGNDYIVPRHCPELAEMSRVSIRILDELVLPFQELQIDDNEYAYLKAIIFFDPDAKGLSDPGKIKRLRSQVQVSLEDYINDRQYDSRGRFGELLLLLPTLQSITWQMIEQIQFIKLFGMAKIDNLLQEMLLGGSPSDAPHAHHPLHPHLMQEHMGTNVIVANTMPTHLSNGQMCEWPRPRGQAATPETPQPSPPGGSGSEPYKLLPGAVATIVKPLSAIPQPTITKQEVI
ALR inh: inhibitors of human sulfhydryl oxidase ALR | P55789 | purified ALR, DTT oxidation, H2O2 HRP-luminol luminescence | inhibition, % (no concentration beside the values) | hit rate 3.8% among 290,000 | AID 485317;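 active = mean and each replicate at 75% or more; inconclusive = only one of the two met; inactive = neither met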;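 note: stock transfer was 7.5 nL into about 7.5 µL; 0% = neutral wells and 100% = wells with inactivated enzyme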
rRNA inh HTS OD600: second read-out of rRNA inh HTS, no call of its own (marks repeat the call); OD600 change, %; measured here: OD600 growth;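 optical density of the mix in the first replicate; 0 = DMSO median and -100 = no signal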
rRNA inh HTS RFP: further read-out of rRNA inh HTS, marked with its call; RFP signal change, %; measured here: RFP humanized mutant strains;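 first replicate; 0 = DMSO median and -100 = no signal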
* = called active by the depositor; i = inactive; ? = inconclusive; nt = no result given; & = joins results of further samples; ! = repeats disagree. A portion of the library; the hit share may differ from the screen's.

canonical_smiles,rRNA inh HTS,rRNA inh HTS OD600,rRNA inh HTS RFP,E coli growth,MLL AF4-AF9 inh,FGF22 binding,Vif A3G,HNF4A DNA FP,ALR inh
O=C(O)c1ccc(S(=O)(=O)NCC2CCCO2)cc1 (stereo not drawn),10,8,0.8,0.69,2.6,i,nt,10,-8
Cc1noc(C)c1S(=O)(=O)Nc1ccc2c(c1)C(=O)N([C@H](C)CO)C[C@H](C)[C@@H](CN(C)S(=O)(=O)c1ccc(F)cc1)O2,-25*!,4.7*!,-10.0*!,0.76,-2.6&-3.4,i,nt,0.9,0
Cc1cccc(N(Cc2cc3ccccc3[nH]c2=O)C(=O)c2cccs2)c1,1,-2,-4.0,0.68,5.4,i,-46%,3.3,nt
COC(=O)C[C@H]1C[C@H]2c3cc(NC(=O)C4CCOCC4)ccc3O[C@H]2[C@@H](CO)O1,21&7,11&-2,1.0&1.4,nt,0.8&-7.6,i,2%,2.9,nt
COc1ccc2c3c(n(C)c2c1)[C@H](CO)N(C(C)=O)CC31CN(C(=O)Nc2ccccc2F)C1,-3,3,-0.1,nt,-0.2,i,nt,nt,nt
Cc1noc(C)c1NC(=O)Nc1cccc2c1O[C@@H](CN(C)C(=O)Nc1c(C)noc1C)[C@@H](C)CN([C@H](C)CO)C2=O,1,4,-0.8,nt,-0.6,i,nt,nt,nt
N#Cc1ccc(C(=O)NCC(c2ccco2)N2CCCCC2)cc1 (stereo not drawn),nt,nt,nt,0.79,nt,nt,-1%,-0.6,6
C=C1CCN([C@@H](CC(C)C)C(=O)NCCC(C)C)S(=O)(=O)c2ccccc21,-7,-32,-1.8,nt,2.1,i,nt,-1.6,-20
C[C@@H]1CN([C@@H](C)CO)C(=O)CCCn2cc(nn2)CO[C@H]1CN(C)S(=O)(=O)c1ccc(Oc2ccccc2)cc1,0,-6,0.3,nt,-0.9&-8.8,i,nt,nt,nt
COCC(=O)N1C[C@@H](C)[C@@H](OC)CN(C)C(=O)c2cc(NC(=O)Nc3ccccc3)ccc2OC[C@H]1C,0,-2,-0.7,nt,4.0,i,nt,nt,nt
CN(c1ccccc1)c1nccc(=O)[nH]1,10,11,-1.6,0.67,-2.2,i,nt,7.8,2
Cc1ccc(N2CCN(S(=O)(=O)c3ccc4c(c3)NC(=O)C(C)C(=O)N4)CC2C)cc1 (stereo not drawn),-3,2,7.0,0.77,20,i,nt,-2.5,97*
COc1ccc2cc(C(N)=O)/c(=N/NC(=O)c3ccco3)oc2c1,nt,nt,nt,nt,nt,nt,-14%,-1.6,19
COc1cccc(NC(=O)CN(C)C(=O)c2ccc3[nH]c4c(c3c2)CC(C)CC4)c1 (stereo not drawn),0,-3,1.2,0.69,-12,i,11%,-3.2,nt
O=C(COc1ccc(Cl)cc1Cl)NCC1(N2CCOCC2)CCCCC1,5,7,0.1,0.69,-5.2,i,nt,-2.3,-5
O=C(N/N=C/c1cn(CCOc2ccccc2)c2ccccc12)c1ccncc1,nt,nt,nt,nt,nt,nt,1%,0.5,-4
N#Cc1cc2c(nc1SCC(=O)Nc1sc3c(c1C#N)CCC3)CCC2,nt,nt,nt,0.71,nt,nt,-5%,0.1,3
C[C@@H]1CN([C@H](C)CO)C(=O)Cc2cc(NS(=O)(=O)c3ccccc3)ccc2O[C@@H]1CN(C)S(C)(=O)=O,3,0,0.8,nt,-0.8,i,nt,nt,nt
CC1(C(=O)Nc2ccc3c(c2)OCCO3)CSCC(=O)N1Cc1ccco1 (stereo not drawn),4,3,5.2,nt,nt,i,nt,3.7,nt
CCCCOC(=O)CCCc1ccc([N+](=O)[O-])cc1[N+](=O)[O-],-19,-20,-5.9,0.68,13,nt,7%,-4.4,-9
CCNC(=O)C1(C)CCN(Cc2noc(-c3c(C)noc3C)n2)C1 (stereo not drawn),10,8,-1.8,nt,-6.1,i,nt,0.0,nt
CC(=C/c1ccccc1)/C=N/Nc1nc(N2CCOCC2)nc(N2CCOCC2)n1,-1,-5,0.0,nt,-1.4,i,-8%,2.2,-6
COc1ccc(/C=C/C(=O)O)cc1S(=O)(=O)N1CCc2ccccc2C1,-7,-10,-1.4,0.69,1.6,i,11%,-5.3,2
O=C(c1cn(Cc2ccccc2)nc1-c1cccnc1)N1CCN(Cc2c(F)cccc2Cl)CC1,nt,nt,nt,0.71,-1.2,i,29%,-0.3,-6
CN(CCc1ccccn1)c1ccc([N+](=O)[O-])cn1,16,5,25,0.71,-1.0,i,-2%,-0.2,-7
CCN(CC)C(=O)CSc1nc2c(sc(=S)n2-c2ccc(C)cc2C)c(=O)[nH]1,-27*,-22*,-3.0*,0.67,4.7,i,-5%,1.6,nt
O=C(CNC(=S)N(Cc1ccccc1)Cc1cccs1)NCc1ccc(F)cc1,-15,-17,0.2,0.7,-0.8,i,nt,1.4,nt
O=S1(=O)N[C@H](Cc2ccccc2)COc2cc(N3CC[C@H](O)C3)ccc21,0,4,-1.5,nt,-1.0,i,nt,4.1,nt
N=C1/C(=C/c2ccc(OCc3ccccc3)cc2)C(=O)N=C2SC(CC(=O)N3CCOCC3)=NN12,1,0,1.7,0.67,-7.6,i,-6%,-1.2,6
CCCc1ccc(C(O)c2ncc(-c3ccccc3F)[nH]2)cc1 (stereo not drawn),-23,-47,-4.1,nt,-2.8,i,nt,5.0,nt
Cc1nc(SCC(=O)NCc2ccco2)nc(C)c1C,nt,nt,nt,0.72,nt,nt,1%,0.2,1
C[C@@H]1CN([C@@H](C)CO)C(=O)c2cc(NC(=O)Nc3ccc(C(F)(F)F)cc3)ccc2O[C@@H]1CN(C)CC1CCCCC1,-6,-4,-7.3,nt,12,i,nt,nt,nt
O=C(CCc1ccncc1)N1CCCC(Nc2ccc(F)cc2)C1 (stereo not drawn),9,10,2.4,0.75,-0.7,i,nt,-3.0,56
C[C@@H]1CN([C@@H](C)CO)C(=O)c2cc(NC(=O)CCCN(C)C)ccc2O[C@@H](C)CCCCO[C@H]1CN(C)Cc1ccccc1,1,0,-1.9,nt,-0.9,i,nt,nt,nt
O=C(c1ccc(CNc2c(N3CCCC3)c(=O)c2=O)cc1)N1CCc2ccccc2C1,-8,-2,-6.9,0.76,5.1,i,-1%,5.3,5
CCCCc1ccc(NC(=O)NCc2cccnc2)cc1,-21,-22,-5.4,0.66,-1.6,i,nt,-1.1,-1
COc1cc(/C=N/Nc2nc(-c3ccc(S(=O)(=O)N(C)C)cc3)cs2)ccc1O,-7,-2,-1.0,nt,-1.4,i,-6%,3.7,39
CCOC(=O)CN1c2ccccc2NC(=O)CC1C (stereo not drawn),5,6,1.0,0.72,-2.5,i,8%,3.4,45
COc1ccc(NC(=O)Cn2ncc(Cl)c(Cl)c2=O)cc1S(=O)(=O)N1CCOCC1,nt,nt,nt,0.71,nt,nt,?,-5.2,nt
O=C(NCC[C@@H]1CC[C@H](NS(=O)(=O)c2cccc(Cl)c2)[C@H](CO)O1)c1cnccn1,0,7,-2.1,nt,-3.1,i,nt,nt,nt
CC(=O)NCc1cc(-c2ccc(Cl)cc2)no1,5,1,-5.4,0.67,-0.7,i,5%,-5.3,-4
CC1(C)CC(=O)C(C(=S)Nc2ccccc2)=C(NC2CC(C)(C)NC(C)(C)C2)C1,14,9,-0.2,0.74,-1.6,i,nt,-1.0,9
Cn1c(=O)c2cc(NC(=O)CCc3cccnc3)ccc2n1Cc1ccc(F)cc1,1,5,-2.4,nt,-6.2,i,nt,3.5,nt
Cc1[nH]n(-c2ccccc2)c(=O)c1-c1ccc(Cl)cc1,nt,nt,nt,0.7,nt,nt,10%,-5.0,26
COc1ccc(N(CC(=O)N/N=C/c2ccc(-c3ccc([N+](=O)[O-])cc3)o2)S(=O)(=O)c2ccc(C)cc2)cc1,10,-1,-0.8,nt,5.0,i,nt,35,2
COc1ccccc1CN1[C@@H]2CN(C(=O)C3CCCCC3)c3ccccc3[C@@H]2[C@@H]1CO,-31,-26,20,nt,1.6,i,nt,nt,nt
O=C(C[C@H]1C=C[C@H](NS(=O)(=O)c2ccc(F)cc2)[C@@H](CO)O1)N1CCN(c2ccccc2)CC1,-3,-5,0.9,nt,-3.3,i,nt,nt,nt
CC1CCC(N2CCN(c3ncccn3)CC2)CC1 (stereo not drawn),nt,nt,nt,0.72,nt,nt,0%,0.0,-1
CN1CCN(Cc2cc(Cl)c3cccnc3c2OC(=O)c2cccs2)CC1,nt,nt,nt,nt,nt,nt,20%,0.5,-9
CC(C)NC(=O)Nc1ccc2c(c1)C(=O)N([C@H](C)CO)C[C@H](C)[C@@H](CN(C)C(=O)Nc1ccc(C(F)(F)F)cc1)O2,-16&6,-11&10,-1.1&0.8,0.72,-2.4&0.5,i,-1%,-2.4,-2
CCOC(=O)/C=C1\CN(Cc2ccc(OC)cc2)S(=O)(=O)c2ccccc21,-29,-36,-25,nt,2.1,i,nt,0.5,nt
COc1ccc2c3c(n(C)c2c1)[C@H](CO)N(CC1CC1)CC31CN(S(=O)(=O)c2cn(C)cn2)C1,0,10,-1.5,nt,0.8,i,nt,nt,nt
CCc1nc2ccc(C(=O)NCCCn3ccnc3)cn2c1N(C)Cc1ccc(Cl)cc1,14,21,0.0,nt,2.5,i,nt,1.2,nt
O=C(NCCCN=C1NS(=O)(=O)c2ccccc21)c1ccccc1Cl,4,6,-0.9,0.69,-1.1,i,nt,-0.7,-17
O=C(C[C@H]1C[C@@H]2c3cc(NC(=O)Nc4ccccc4F)ccc3O[C@@H]2[C@H](CO)O1)NCC1CC1,2,-3,-1.0,nt,-4.2,i,nt,nt,nt
O=C(CSc1ccc(-c2ccccn2)nn1)c1ccc(F)cc1,9,12,-4.3,0.7,3.7,i,4%,9.7,nt

Following part
canonical_smiles,rRNA inh HTS,rRNA inh HTS OD600,rRNA inh HTS RFP,E coli growth,MLL AF4-AF9 inh,FGF22 binding,Vif A3G,HNF4A DNA FP,ALR inh
N#C[C@H]1[C@@H](c2ccccc2C2=CCCC2)[C@@H](CO)N1C(=O)C1CCOCC1,1,9,3.0,nt,-7.6,i,nt,nt,nt
C[C@H](O)C#Cc1ccc2c(c1)O[C@H](CN(C)C(=O)c1ccccc1)[C@H](C)CN([C@H](C)CO)S2(=O)=O,-5,-9,-2.1,nt,2.6,i,nt,nt,nt
Cc1ccccc1CCN(C(=O)Cn1nnc2ccccc21)C(C(=O)NCC1CCCO1)c1nc2ccccc2n1C (stereo not drawn),nt,nt,nt,0.67,nt,nt,-7%,-4.0,-1
COC(=O)C1=C(N)c2ccccc2C1(C#N)c1ccccc1 (stereo not drawn),nt,nt,nt,0.69,nt,nt,-1%,-0.4,-7
COc1cccc(CNC(=O)C2(C)Oc3ccccc3NC2=O)c1 (stereo not drawn),nt,nt,nt,0.72,nt,nt,0%,0.0,4
O=C(Nc1ccc(S(=O)(=O)N2CCOCC2)cc1)c1cccnc1,13,10,1.5,0.65,5.2,i,1%,1.0,-1
Cc1cc(C)n(-c2ccc(F)cc2)c(=O)c1C(=O)O,nt,nt,nt,0.7,nt,nt,1%,-1.8,-5
O=C(OCc1nnc(-c2ccc(Cl)cc2)o1)c1ccc(=O)n(Cc2ccccc2)n1,nt,nt,nt,0.7,nt,nt,-6%,-2.0,-2

Bioassay records as filed in PubChem.
